ClpP mod – qHTS Assay for Activators of ClpP; 1.9% of 340,000 active; Potency, µM (titrated, usually from 57.5 µM), without a hit: top-dose activity change, negative = active; purified B. subtilis ClpP, FRET peptide cleavage, 20 min; active = well fitted falling curve with a large enough effect; inconclusive = small, poorly fitted or top-dose-only effect; inactive = no such curve, though single readings can be large or run the other way; also: potency is read from the fitted curve at half-maximal effect; the source files actives as falling curves though it sought activators and does not explain the sign; nearly all actives have a fitted effect of over 65% in size; many hits overshoot -100%
Target sequence (P80244 whole entry, looked up): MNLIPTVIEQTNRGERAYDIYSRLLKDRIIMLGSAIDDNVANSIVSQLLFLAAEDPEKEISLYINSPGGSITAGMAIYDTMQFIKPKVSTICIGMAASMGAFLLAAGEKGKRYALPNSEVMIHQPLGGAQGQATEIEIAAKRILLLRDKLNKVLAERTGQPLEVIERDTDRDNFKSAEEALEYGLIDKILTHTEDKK
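Purified B. subtilis ClpP, 10 microg/mL final in Tris/HCl pH8 with KCl, BSA, glycerol and Tween-20, cleaved an Abz/nitrotyrosine-quenched decapeptide. Fluorescence (ex 320, em 430) was read at 0 and 20 min at room temperature. Delta was normalized to 5.8 microM ADEP and DMSO/no-enzyme controls.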
Sfp inh – blocks B. subtilis Sfp PPTase activity. Biochemical Sfp PPTase activity, qHTS. Q9F4F7. 3.5% of 310,000 active. Potency, µM, for inactives: max response, negative = inhibition, actives largely listed as inhibitors. AID 1490; active = well fitted inhibition curve with a large enough effect; inconclusive = small, poorly fitted or top-dose-only effect, or another doubt; inactive = no such curve, though single readings can be large or run the other way;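 also: the enzyme is Sfp with the accession as filed and its product quenches rhodamine fluorescence; potency is read from the fitted curve at half-maximal effect; 0% = enzyme reaction without inhibitor and -100% = no enzyme wells; top concentration of the series not given in the record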
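With Hepes-Na pH 7.6 buffer containing 10 mM MgCl2, Sfp (15 nM) modified BHQ-2-YbbR (12.5 uM) using rhodamine-CoA (5 uM). Two reads 30 minutes apart at 525/598 nm yielded each well's rate.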
PINK1 modulator – modulators of PINK1 expression; PINK1 immunofluorescence, high-content cytometry, 24 h; Potency, µM (top dose mostly 76.6 µM), for the others: at the highest dose activation (PINK1 increase), usual class: activators; 0.2% of 410,000 active; active = well fitted activation curve with a large enough effect; inconclusive = small, poorly fitted or top-dose-only effect; inactive = flat fitted curve, though single readings scatter; cell line not stated here;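 also: potency is read from the fitted curve at half-maximal effect; % of control where 0% means no effect; nearly all actives have a fitted effect of over 65% in size; a mitochondrial uncoupler was the plate control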
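Stable cell line treated 24 h with compounds at 5 concentrations (CCCP controls), then fixed and immunostained for PINK1 plus nuclear and cell stains; PINK1 immunofluorescence quantified by laser-scanning microplate cytometry.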
gsp antag – antagonists of gsp mutant (McCune-Albright syndrome) | 0.4% of 340,000 active | Potency, µM (titrated, usually from 76.9 µM), for the others: at the highest dose activity change, negative = inhibition, hits mostly inhibitors | gsp-mutant cells, cAMP HTRF, 30 min; control for the full effect not named in the record; active = falling curve of any shape with a large fitted effect; inconclusive = falling curve, mostly with a smaller effect; inactive = flat or rising curve; cell line not stated here;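 also: intracellular cAMP measured with PDE inhibitor Ro 20-1724 present during compound exposure; potency is read from the fitted curve at half-maximal effect; % is scaled to controls: 0 for no effect and ±100 for the full control effect; nearly all actives have a fitted effect of over 65% in size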
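G418-selected cells were plated in DMEM/10% FBS for 16-24 h at 37C, then treated with compounds plus the PDE inhibitor […] (300 uM solution added) for 30 min at 37C. Intracellular cAMP was measured by HTRF after 30 min lysis at room temperature.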
Menin MLL FP FL – inhibitors of human menin-MLL interaction, wild-type MLL peptide. Fluorescence polarization, fluorescein-MLL peptide displacement from menin. 290,000 tested, under 10 active. FP activity change, % at 61.4 µM. AID 1766; inconclusive = falling polarisation curve, or a change in total fluorescence; inactive = total fluorescence flat and polarisation flat or rising; no compound was filed as active; the % refers to the polarisation; negative = inhibition;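 also: % of control where 0% means no effect; inhibitors lower the polarisation; unlabelled MLL peptide was the positive control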
gsp agonist – gsp mutant agonism. Potency, µM (series often up to 76.9 µM), for inactives: at the top dose activation (cAMP increase), hits mostly activators. gsp mutant cells, cAMP HTRF, 30 min; control for the full effect not named in the record. AID 624287. 0.13% of 340,000 active; active = well fitted activation curve with a large enough effect; inconclusive = small, poorly fitted or top-dose-only effect, or another doubt; inactive = no such curve, though single readings can be large or run the other way; cell line not stated here;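 also: phosphodiesterase inhibitor Ro 20-1724 added with compounds to block cAMP breakdown; potency is read from the fitted curve at half-maximal effect; nearly all actives have a fitted effect of over 60% in size; about a fifth of the inactives were tested at one dose only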
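Cells stably selected in G418 were plated at 2000/well, grown 16-24 hr, then given compounds in DMSO with the PDE inhibitor […] (300 uM solution added) for 30 min at 37C; cAMP was read by HTRF.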
D2 agonist – human D2 receptor agonism in beta-arrestin assay | P14416 | DiscoveRx PathHunter D2 beta-arrestin, luminescence, 90 min; 100% = 57 uM dopamine signal | AID 624465 | 0.084% of 360,000 active | activation, % (no concentration beside the values); in the data active = activation above about 40%; inconclusive = about 15% to 40%; inactive = below about 15%; also: compound concentration not given in the record; the text of the record calls up to 30% inactive
Target sequence (P14416 whole entry, looked up): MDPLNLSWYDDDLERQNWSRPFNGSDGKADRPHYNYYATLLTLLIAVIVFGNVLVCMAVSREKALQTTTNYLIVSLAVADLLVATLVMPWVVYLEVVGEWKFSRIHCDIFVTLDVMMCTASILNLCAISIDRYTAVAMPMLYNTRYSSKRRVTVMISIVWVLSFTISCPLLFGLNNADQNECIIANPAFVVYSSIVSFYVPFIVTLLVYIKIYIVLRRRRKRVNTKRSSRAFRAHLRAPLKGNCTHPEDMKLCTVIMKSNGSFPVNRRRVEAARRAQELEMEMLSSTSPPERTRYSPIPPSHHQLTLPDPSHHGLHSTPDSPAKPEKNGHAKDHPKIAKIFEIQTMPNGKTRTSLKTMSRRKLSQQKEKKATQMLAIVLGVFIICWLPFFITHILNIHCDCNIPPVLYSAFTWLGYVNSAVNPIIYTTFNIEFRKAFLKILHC
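Agonist mode: compounds alone added to overnight-plated D2 PathHunter cells for 90 min at 37 C, with 57 uM final dopamine (EC100) defining full response. Beta-arrestin recruitment detected by chemiluminescent reagent, read after 1 h at ambient temperature.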
Starred values were filed as active, the others as inactive; ? = inconclusive; / = not tested or not shown; & = joins results of further samples; ! = not active in a repeat; [ ] = remark or other dose.

SMILES	ClpP mod	Sfp inh	PINK1 modulator	gsp antag	Menin MLL FP FL	gsp agonist	D2 agonist
Cc1ccc(/C=C/C(=O)OCC(=O)NC(C)C)o1	/	-47%	-1.8%	3%	-0.9	?	2.2
CC(=O)Nn1cc2c(c1-c1ccccc1)c(=O)n(C)c(=O)n2C	-2.8%	-6%	7.5%[38.3 µM]	12%	18	-26%	-1.9
CC(=O)c1ccc(N2CCN(C(=O)/C=C/c3ccc(S(=O)(=O)NCc4ccco4)cc3)CC2)cc1	/	10%	-1.6%	-21%	0.4	-22%	6.5
COCCN1C(=O)N(c2cccc(OC)c2)C(=O)C1CC(=O)Nc1cccc(F)c1 (configuration not stated)	0.4%	1%	1.8%	-1%	0.5	0%	-4.2
O=C(Nc1cccc(Cl)c1)C1C2C=CC3(O2)C1C(=O)N(CCN1CCCCC1)C3C(=O)NC1CCCCC1 (configuration not stated)	/	10%	2.6%	14%	-0.4	-4%	-0.7
Cc1cc(N)c2ccccc2n1	-21%	2%	-1.0%	9%	-1.6	-36%	1.1
O=C(CSc1nc2ccccc2c(=O)n1-c1ccc(F)cc1)Nc1ccc2c(c1)CCC2	/	22%	1.4%	-1%	3.5	0%[15.4 µM]	3.3
CC1Sc2ccc(C(=O)O)cc2NC1=O (configuration not stated)	-1.6%	3%	1.5%	8%	4.5	-27%	-1.4
Cc1ccc(NC(=O)CC2Oc3ccc(C)cc3NC2=O)c(C)c1 (configuration not stated)	-1.9%&-2.3%	-26%	13%&0.2%	4%	-1.6	8%	1.0
CCCn1c(=S)[nH]c2sc3c(c2c1=O)CCCC3	/	11%	1.2%	-10%	/	8%[15.4 µM]	-7.0
CCCOC(=O)c1cccc(NC(=O)COc2ccc([N+](=O)[O-])cc2)c1	-3.1%	?	3.6%	-26%	1.4	1%[15.4 µM]	-3.4
Cc1ccc2nc(C3CCN(C(=O)c4ccco4)CC3)[nH]c2c1	1.0%	10%	4.6%[38.3 µM]	4%	3.7	1%	-2.9
CCS(=O)(=O)N1CCN=C1SC(C)c1ccccc1 (configuration not stated)	0.5%	13%	0.8%	-1%	/	21%	5.6
Cc1ccc(CN2CC(N3CCC(c4ccccc4)CC3)CS2(=O)=O)cc1 (configuration not stated)	1.6%	/	0.8%	/	/	/	3.0
Cc1ccc(C(=O)N/N=C2\CC3CC=CC23)c(C)c1 (configuration not stated)	-4.4%	4%	-1.5%	10%	-1.1	2%	-0.4
COc1ccc(OCc2nnc(SCC(=O)c3ccccc3)o2)cc1	/	-8%	-3.8%	-4%	3.1	27%	1.4
Cc1ccsc1-c1cc2nc(NCCCN(C)C)n(C)c(=O)c2s1	4.3%	/	0.3%	/	/	/	-1.6
CC(C)(C)NC(=O)c1cccc(NC(=O)Cc2ccc(Br)cc2)c1	-0.7%	7%	1.2%	?	5.1	-15%	-2.7
Clc1ccccc1-c1nnc2sc(-c3ccccn3)nn12	-4.9%	-2%	-0.7%	-4%	-2.0	12%	2.1
COc1cc2c(cc1OC)-c1cc(OCc3ccccc3Cl)nc(=O)n1CC2	51%	6%	?	9%	3.3	3%	0.1
O=C(COC(=O)c1ccc(O)cc1)NCCc1c[nH]c2ccccc12	1.8%	/	0.8%	-10%	/	-6%	-2.2
COC(=O)c1ccccc1NC(=O)C1CCN(c2ncnc3c2nc2n3CCCCC2)CC1	-0.2%	-5%	5.2%	?	-1.0	?	-10
CSC(=Nc1ccccc1)C1=C(O)COC1=O	-3.7%	7%	-0.5%	6%	6.9	-2%	5.0
O=C1CCCc2c1nc(-c1ccc([N+](=O)[O-])cc1)n2O	/	?	-0.6%	17%	3.5	2%[15.4 µM]	-9.4
C=CCn1c(COc2ccccc2)nc2ccccc21	/	12%	0.8%	-5%	-0.9	2%	5.3

Sorted by value in gsp antag (smallest number first): some entries from above
molecule	gsp antag
COc1cc2c(cc1OC)-c1cc(OCc3ccccc3Cl)nc(=O)n1CC2	9%
CC(=O)Nn1cc2c(c1-c1ccccc1)c(=O)n(C)c(=O)n2C	12%
O=C(Nc1cccc(Cl)c1)C1C2C=CC3(O2)C1C(=O)N(CCN1CCCCC1)C3C(=O)NC1CCCCC1 (configuration not stated)	14%

More records
SMILES	ClpP mod	Sfp inh	PINK1 modulator	gsp antag	Menin MLL FP FL	gsp agonist	D2 agonist
N=c1c2cn[nH]c2nc(SCC(=O)c2ccc(Br)cc2)n1-c1ccc(Br)cc1	-0.8%	25%	2.1%	5%	1.0	-5%[15.4 µM]	-3.6
Cc1nn(C)c(C)c1/C=C(\C#N)C(N)=O	-1.6%	13%	0.6%	9%	2.7	-6%	-1.6
COc1ccc2[nH]c(=O)c(CN(C(=O)NC3CCCCC3)C3CCCC3)cc2c1	34%	20%	0.5%[38.3 µM]	12%	1.6	6%	-2.8
COc1ccc(NC(=O)c2ccc3ccccc3n2)cc1S(=O)(=O)N1CCCCC1	1.0%	-10%	1.8%	-22%	0.9	1%[15.4 µM]	-5.7
Cc1ccc(NC(=O)C2(C)CCN2C(=O)C2CCCCC2)cc1C (configuration not stated)	0.6%	/	8.4%	/	/	/	-3.0
O=C(O)CCC(C(=O)O)N1C(=O)C2C3CCC(C3)C2C1=O (configuration not stated)	-1.0%	/	1.4%	/	/	-31%	-3.2
CC(C)(ONC(=O)Nc1ccccc1Cl)C(=O)O	/	19%	-0.6%	-3%	-2.0	8%[15.4 µM]	-3.4
Cc1cccc(C)c1NC(=O)C(NC=O)c1ccccc1 (configuration not stated)	1.3%	-1%	8.9%	0%	-0.2	11%	-2.4
CCCNC(=O)C1CN(C(=O)c2nn(Cc3ccccc3)c(=O)c3ccccc23)c2ccccc2O1 (configuration not stated)	-1.0%	/	2.8%	-13%	/	-3%	1.1
COc1ccc([N+](=O)[O-])cc1NC(=S)NC(NC(C)=O)C(Cl)(Cl)Cl (configuration not stated)	-0.8%	-5%	6.3%	5%	0.1	?	-1.4
O=C(O)c1cc2c(cc1Cl)N1CCCCCC1=NS2(=O)=O	0.5%	9%	-2.3%	11%	0.7	?	-1.9
O=S(=O)(CCN1CCSCC1)c1ccc(Cl)cc1	/	8%	5.0%	5%	-0.6	14%[15.4 µM]	1.4
O=C(NC1CCCC1)c1n[nH]c2ccccc12	-6.0%	21%	2.2%	-1%	-0.9	15%	-6.5
N#CC1(Cc2ccccc2)c2ccccc2C=CN1C(=O)c1ccccc1 (configuration not stated)	1.7%	7%	-0.7%	3%	2.0	14%	2.7
Cc1ccc(/C=[N+](\[O-])c2ccc(N(C)C)cc2)c2nsnc12	/	-65%	-2.0%	?	?	-43%[15.4 µM]	2.5
O=C(CNC(=O)c1cc(=O)[nH]c2ccccc12)Nc1ccc(F)c(F)c1	-21%	8%	0.6%	4%	-3.6	?	-4.5
Cc1ccc2[nH]c(O)c(N=NC(N)=S)c2c1	1.3%	-8%	-0.5%	1%	0.9	-5%	-6.7
COc1cccc2c1cc1c(=O)n(CC(=O)N3CCC(C)CC3)nc(C)n12	2.5µM*!	6%	0.9%&-0.5%	-8%	/	?	?
O=C1CC(N2CCCCC2)C(=O)N1c1ccccc1 (configuration not stated)	-2.3%	20%	0.9%	3%	2.1	3%	-7.4
CSc1ccccc1NC(=O)Nc1cccc(Cl)c1Cl	-0.1%	3%	21%[38.3 µM]	13%	2.2	4%	-2.3
Cc1cc(=O)oc2cc(OCC(=O)N3CCOCC3)ccc12	16µM*	32µM*	1.2%	3%	3.7	?	-6.1
CCOCC(=O)Nc1nc2ccc(OCC)cc2s1	-4.1%	11%	0.3%	-9%	0.8	3%	0.0
O=C(NCCOc1ccc(F)cc1)C1CCC(=O)N(CCN2CCOCC2)C1 (configuration not stated)	0.6%	12%	-2.4%	6%	/	-55%[inhibitor]	-5.7
CCOC(=O)N1CCN(c2cc(=O)n(Cc3ccc(F)cc3)c(=O)[nH]2)CC1	-4.1%	12%	2.9%[38.3 µM]	0%	1.1	7%	0.3
Cn1c(NC(=O)C(C)(C)Oc2ccc(Cl)cc2)cc(=O)n(C)c1=O	-1.1%	12%	3.4%	-15%	4.2	-37%[inhibitor]	-1.3
c1ccc(CCn2c(SCc3ccccc3)nnc2-c2ccncc2)cc1	0.2%	?	1.5%	-2%	0.4	9%	-9.4

Part of the list above, in markdown.
| smiles | ClpP mod | Sfp inh | PINK1 modulator | gsp antag | Menin MLL FP FL | gsp agonist | D2 agonist |
| --- | --- | --- | --- | --- | --- | --- | --- |
| c1ccc(CCn2c(SCc3ccccc3)nnc2-c2ccncc2)cc1 | 0.2% | ? | 1.5% | -2% | 0.4 | 9% | -9.4 |
| N=c1c2cn[nH]c2nc(SCC(=O)c2ccc(Br)cc2)n1-c1ccc(Br)cc1 | -0.8% | 25% | 2.1% | 5% | 1.0 | -5%[15.4 µM] | -3.6 |
| Cc1ccc2nc(C3CCN(C(=O)c4ccco4)CC3)[nH]c2c1 | 1.0% | 10% | 4.6%[38.3 µM] | 4% | 3.7 | 1% | -2.9 |
| Cn1c(NC(=O)C(C)(C)Oc2ccc(Cl)cc2)cc(=O)n(C)c1=O | -1.1% | 12% | 3.4% | -15% | 4.2 | -37%[inhibitor] | -1.3 |
| COc1ccc(OCc2nnc(SCC(=O)c3ccccc3)o2)cc1 | / | -8% | -3.8% | -4% | 3.1 | 27% | 1.4 |
| Clc1ccccc1-c1nnc2sc(-c3ccccn3)nn12 | -4.9% | -2% | -0.7% | -4% | -2.0 | 12% | 2.1 |
| COc1ccc2[nH]c(=O)c(CN(C(=O)NC3CCCCC3)C3CCCC3)cc2c1 | 34% | 20% | 0.5%[38.3 µM] | 12% | 1.6 | 6% | -2.8 |

Screens (PubChem)
